# Screening results deposited in PubChem BioAssay by several laboratories.
# Beta2AR agonist – beta2AR agonists driving receptor internalization, primary screen, cell-based, FAP fluorogen, flow cytometry; Beta-2 adrenergic receptor (Homo sapiens), P07550; Am2.2-beta2AR cells; reference of the scale not given here; response, % (concentration not given with the values); actives 0.43% (n = 340,000);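 active = response above a set limit, near 3 SD of response in nonfluorescent compounds, cut at about 42% in these data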;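 note: stock transfer was 100 nL into about 11 µL; a reference agonist was the positive control; negative values mostly stem from fluorescent compounds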
# E coli growth – E. coli growth inhibition, primary screen, OD600; AID 1053175, 2014; OD600 absorbance (no concentration beside the values); actives 0.21% (n = 330,000); Escherichia coli growth, 23 h; hits give low values;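 active = OD600 absorbance below the run mean of sample wells minus 3.6 SD, in any replicate, cut at about 0.56 in these data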;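 note: stock transfer was 300 nL into about 60 µL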
# ALR inh – inhibitors of human ALR sulfhydryl oxidase, primary screen, biochemical, H2O2 detection, HRP-luminol luminescence, single point; AID 485317, 2010; inhibition, % (test concentration not listed); purified ALR, DTT oxidation; actives 3.8% (n = 290,000); FAD-linked sulfhydryl oxidase ALR (Homo sapiens), P55789;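 active = mean and each replicate at 75% or more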;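 note: stock transfer was 7.5 nL into about 7.5 µL; 0% = neutral wells and 100% = wells with inactivated enzyme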
# Target sequence (P55789 whole entry, looked up): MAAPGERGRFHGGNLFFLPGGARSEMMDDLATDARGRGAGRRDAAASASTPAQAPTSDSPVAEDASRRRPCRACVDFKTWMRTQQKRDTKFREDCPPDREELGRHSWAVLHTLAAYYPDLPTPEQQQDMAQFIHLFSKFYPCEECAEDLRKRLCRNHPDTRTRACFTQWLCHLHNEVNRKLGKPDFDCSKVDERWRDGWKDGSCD
# HNF4A DNA FP – change in binding of human HNF4A to DNA, primary screen, biochemical, fluorescence polarization, FITC-DNA; Hepatocyte nuclear factor 4-alpha (Homo sapiens), P41235; 1 h; activity change, % at 10 µM; actives 0.3% (n = 360,000); in the data active = activity change above about 30%, passing the limit was not always enough;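 note: controls were the assay level and a saturating level of protein; the project sought stronger binding though the title names inhibitors; some compounds called inactive have numbers as strong as hits; positive values seem to mean higher polarization but the record does not say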
# Target sequence (P41235 whole entry, looked up): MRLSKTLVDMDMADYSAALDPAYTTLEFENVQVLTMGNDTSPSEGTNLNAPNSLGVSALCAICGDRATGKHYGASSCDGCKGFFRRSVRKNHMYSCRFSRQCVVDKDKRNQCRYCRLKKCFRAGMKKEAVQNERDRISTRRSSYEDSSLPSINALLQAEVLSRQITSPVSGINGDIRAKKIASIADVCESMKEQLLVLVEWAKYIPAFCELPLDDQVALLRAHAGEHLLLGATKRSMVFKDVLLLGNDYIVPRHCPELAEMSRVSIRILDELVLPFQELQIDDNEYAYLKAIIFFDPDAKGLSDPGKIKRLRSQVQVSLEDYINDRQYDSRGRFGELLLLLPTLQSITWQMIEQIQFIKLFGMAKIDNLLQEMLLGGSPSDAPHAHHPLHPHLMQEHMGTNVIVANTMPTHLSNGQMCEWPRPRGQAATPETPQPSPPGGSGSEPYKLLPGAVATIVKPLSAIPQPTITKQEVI
# rRNA inh HTS – reduced GFP signal of wild-type E. coli, primary screen, bacterial rRNA inhibitor project, GFP/RFP fluorescence, OD600, single point | E. coli WT GFP vs humanized-ribosome RFP mutants, 24 h; hits give low values; DMSO median 0, no signal -100 | GFP signal change (wild-type ribosome), % (no concentration beside the values) | actives 1.6% (n = 350,000) | AID 720706, 2013;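 active = significant combined selectivity score with lowered wild-type GFP, culture density cut under 30%, mutant RFP and density less affected; inactive = any of these conditions unmet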; note: one replicate is shown; some compounds called inactive have numbers as strong as hits
# FGF22 binding – binders of human FGF22 protein, primary screen, FGF22 synaptogenesis inhibitor project, biophysical, thermal shift, single point; Fibroblast growth factor 22 (Homo sapiens), Q9HCT0; recombinant FGF22 thermal shift, SYPRO orange fluorescence; percent of sucrose octasulfate shift, DMSO zero; calls only at 9.99 µM; actives 1.5% (n = 340,000); AID 651658, 2012;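 active = melting point raised past a set limit in the mean and every replicate; three in four hits are not shown here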
# UCH37 inh – inhibitors of human UCH37 deubiquitinase, primary screen, biochemical, Ub-AMC cleavage, fluorescence. AID 588478, 2011. Ubiquitin carboxyl-terminal hydrolase isozyme L5 (Homo sapiens), Q9Y5K5. actives 0.33% (n = 330,000). inhibition, % (concentration not given with the values). purified proteasome/UCH37;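 active = mean of two replicates above 20%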;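 note: 0% = compound-free wells with enzyme and 100% = wells lacking proteasome; stock transfer was 100 nL into about 20 µL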
# Target sequence (Q9Y5K5 whole entry, looked up): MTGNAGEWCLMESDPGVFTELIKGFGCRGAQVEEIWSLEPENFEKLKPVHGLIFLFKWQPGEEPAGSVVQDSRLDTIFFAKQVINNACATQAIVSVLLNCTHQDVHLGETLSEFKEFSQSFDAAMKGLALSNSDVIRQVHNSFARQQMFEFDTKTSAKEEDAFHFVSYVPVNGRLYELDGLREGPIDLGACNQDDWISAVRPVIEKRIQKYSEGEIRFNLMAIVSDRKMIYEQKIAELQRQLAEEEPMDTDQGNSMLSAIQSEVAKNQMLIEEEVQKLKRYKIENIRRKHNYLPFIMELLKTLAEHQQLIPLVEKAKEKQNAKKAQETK
#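 Signal – fluorescence, ex 355 nm, em 460 nm · System – Proteasome-bound UCH37 · Input – 0.15 nM proteasome as dispensed · Timing – 30 min preincubation with enzyme, 25 min cleavage at room temperature · Read-out basis – percent inhibition of cleavage signal versus uninhibited and no-proteasome wells · Medium – Tris-HCl pH 7.4 with ATP-MgCl2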
# rRNA inh HTS OD600 – second read-out of rRNA inh HTS, no call of its own (marks repeat the call); OD600 change, %; measured here: OD600 growth;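 optical density of the mix in the first replicate; 0 = DMSO median and -100 = no signal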
# rRNA inh HTS RFP – recorded beside rRNA inh HTS, whose call it bears; RFP signal change, %; measured here: RFP humanized mutant strains;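 first replicate; 0 = DMSO median and -100 = no signal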
# Active calls of the source: *; i = inactive; . = not tested or not shown.
SMILES,Beta2AR agonist,E coli growth,ALR inh,HNF4A DNA FP,rRNA inh HTS,rRNA inh HTS OD600,rRNA inh HTS RFP,FGF22 binding,UCH37 inh
Cc1cc(C)n(-c2ccc([N+](=O)[O-])cc2-c2nn[nH]n2)n1,3,0.69,-3,-3.5,11,10,1.1,i,4.1
O=C(Nc1ccc(F)cc1)C1CCN(S(=O)(=O)c2ccc3[nH]c(=O)oc3c2)CC1,-1,0.64,-6,1.1,-1,8,-1.2,i,-0.5
COc1ccc(-c2nsc3c(N4CCCCC4)ncnc23)cc1,1,0.74,-8,-3.5,.,.,.,.,-7.2
O=S(=O)(NC1CCCC1)c1cccc(-c2nnc(-c3ccccc3)o2)c1,39,0.66,-10,0.1,.,.,.,.,-0.1
COC(=O)c1ccc(C2NC(=O)c3c(sc(C)c3C)N2)cc1 (stereo unspecified),7,0.66,.,8.4,.,.,.,i,-13
O=C(Cn1c(=O)oc2ccccc21)N1CCCCC1,4,0.72,-14,-3.0,.,.,.,.,2.8
CN(C)CCNc1nc(-c2ccccc2)nnc1C(F)(F)F,-2,0.66,-12,-2.4,.,.,.,.,3.2
Cc1ccc(C(=O)N2CCCC(C(=O)Nc3cccc(-c4ccc(F)cc4)c3)C2)cn1 (stereo unspecified),22,0.68,-11,1.8,0,-32,-1.0,i,1.3
Cc1cccc(OCCC(=O)OCC(=O)N2c3ccccc3NC(=O)C2(C)C)c1,.,.,.,-4.8,-2,-7,-2.8,i,.
CC(=O)c1cc(Cl)ccc1OC(=O)c1ccco1,-3,0.67,5,-1.0,.,.,.,.,2.7
Cc1cc(OCC(=O)NNC(=O)c2cccnc2)cc(C)c1Cl,4,0.69,-3,-0.2,-5,-5,-1.9,i,3.8
O=C(NC1CCCCC1)c1cc(N2C(=O)CCC2=O)ccc1Cl,-2,0.65,.,-0.3,4,8,-0.1,i,2.1
CSCC(=O)N1CCCC(N2CCN(c3cccc(C(F)(F)F)c3)CC2)C1 (stereo unspecified),2,0.67,6,0.7,-5,0,-2.0,i,3.0
CN(C(=O)COC(=O)c1nc(Cl)ccc1Cl)C1CCS(=O)(=O)C1 (stereo unspecified),-1,0.69,-3,-1.8,11,15,-1.3,i,-0.5
CCOc1ccc(-c2nnn(CC(=O)Nc3cc(OC)ccc3OC)n2)cc1OCC,12,0.73,-3,0.8,8,4,2.5,i,-0.5
O=C(CNC(=O)c1cccs1)NC1=NCCS1,-1,0.7,-3,-2.3,7,5,-0.7,i,3.0
CCCCNC(=S)N(Cc1c(C)noc1C)c1ccccc1,-3,0.71,7,-1.2,.,.,.,i,-3.6
Cc1nn(C2CCS(=O)(=O)C2)c(Cl)c1/C=C/C(=O)OCC(N)=O (stereo unspecified),-4,0.68,-3,1.6,10,1,1.7,i,3.3
CCc1[nH]c(=O)c(C#N)c2c1CSC(C)(C)C2,-4,0.64,-13,-3.8,12,10,11,i,-17
CC(=O)NC1=NN(C(C)=O)C(c2ccco2)S1 (stereo unspecified),9,0.65,-32,-1.4,9,2,2.2,i,2.0

# An excerpt from above in order of molecular weight, lowest first:
SMILES,Beta2AR agonist,E coli growth,ALR inh,HNF4A DNA FP,rRNA inh HTS,rRNA inh HTS OD600,rRNA inh HTS RFP,FGF22 binding,UCH37 inh
Cc1cc(OCC(=O)NNC(=O)c2cccnc2)cc(C)c1Cl,4,0.69,-3,-0.2,-5,-5,-1.9,i,3.8
O=C(NC1CCCCC1)c1cc(N2C(=O)CCC2=O)ccc1Cl,-2,0.65,.,-0.3,4,8,-0.1,i,2.1
Cc1cccc(OCCC(=O)OCC(=O)N2c3ccccc3NC(=O)C2(C)C)c1,.,.,.,-4.8,-2,-7,-2.8,i,.

# Returning to the listing with the four entries that preceded the break.
SMILES,Beta2AR agonist,E coli growth,ALR inh,HNF4A DNA FP,rRNA inh HTS,rRNA inh HTS OD600,rRNA inh HTS RFP,FGF22 binding,UCH37 inh
CCCCNC(=S)N(Cc1c(C)noc1C)c1ccccc1,-3,0.71,7,-1.2,.,.,.,i,-3.6
Cc1nn(C2CCS(=O)(=O)C2)c(Cl)c1/C=C/C(=O)OCC(N)=O (stereo unspecified),-4,0.68,-3,1.6,10,1,1.7,i,3.3
CCc1[nH]c(=O)c(C#N)c2c1CSC(C)(C)C2,-4,0.64,-13,-3.8,12,10,11,i,-17
CC(=O)NC1=NN(C(C)=O)C(c2ccco2)S1 (stereo unspecified),9,0.65,-32,-1.4,9,2,2.2,i,2.0
O=c1[nH]n(-c2cccc3cccnc23)c(=O)c2ccccc12,6,0.68,-8,4.5,.,.,.,.,4.1
COc1ccc(C)cc1NCc1ccc(OC)c(C)c1OC,7,0.64,77*,3.2,0,-5,-2.1,i,2.4
COc1ccc(S(=O)(=O)NCc2cccnc2)cc1C(=O)NC1CCCCC1,-5,0.7,-5,-1.3,8,8,1.2,i,4.9
O=C(OCc1ccco1)c1ccc(S(=O)(=O)N2CCCCC2)cc1,-7,0.78,4,-6.9,.,.,.,.,3.2
Cc1nc2c(C(=O)NCc3ccc(F)cc3)c[nH]n2c(=O)c1Cl,-4,0.65,47,1.1,-19,-17,18,i,-0.9
Cc1ccc(S(=O)(=O)N2CCN(C(=O)COC(=O)c3ccc(Cl)nc3)CC2)c(C)c1,-7,0.69,.,0.2,13,18,-2.3,i,4.6
COc1ccc(C2C(C(C)=O)=C(Nc3ccccc3)CC(C)(O)C2C(C)=O)cc1OC (stereo unspecified),-5,0.7,27,6.9,.,.,.,.,8.1
CC(=O)Nc1cccc(-c2csc(Nc3ncccn3)n2)c1,.,0.69,.,.,8,7,-5.4,i,4.2
Cc1cc(C(=O)N/N=C/c2sc(N3CCOCC3)nc2-c2ccccc2)c(C)o1,-14,.,3,1.9,19,15,4.0,i,.
CCC(=O)N(Cc1cc(=O)[nH]c2ccccc12)c1ccc(C)cc1C,-4,0.68,-1,1.3,-7,-13,-4.7,i,2.9
Cc1cc(C)nc(N(C#N)Cc2cccc3ccccc23)n1,1,0.7,-23,-0.6,.,.,.,.,1.0
COC(=O)[C@H]1C[C@@H]1[C@H](NS(=O)(=O)c1ccccc1)c1ccccc1,2,.,-5,0.3,-6,-2,-2.3,i,-3.5
Cc1c(CCC(=O)NCC(=O)O)c(=O)oc2cc3occ(-c4ccccc4)c3cc12,6,0.64,-10,0.3,-20*,-14*,3.8*,i,-9.8
Cn1nc(N2CCN(S(=O)(=O)c3ccccc3)CC2)c(=O)n(C)c1=O,7,0.71,-7,5.1,.,.,.,i,-1.9
CCC(C(=O)n1cccc1C#N)c1ccccc1C (stereo unspecified),-5,0.71,4,3.7,-2,5,0.0,i,2.0
COC(=O)c1ccc(NC(=O)COc2ccc(S(=O)(=O)N3CCCCC3)cc2)cc1,87*,0.74,.,0.5,.,.,.,.,1.2
CCN1CCc2c(sc(NC(=O)c3ccc(S(=O)(=O)N4CCCCCC4)cc3)c2C(=O)NC)C1,18,0.72,-1,1.4,.,.,.,i,-183
CC(=O)Nc1ccc(N/C(=N\S(=O)(=O)c2ccccc2)c2ccccc2)cc1,-5,.,-7,2.2,-4,-17,0.7,i,.
CCN(CC)S(=O)(=O)N1CCC(C(=O)NCc2ccco2)CC1,0,0.64,-7,-0.4,15,11,-2.6,i,-0.4
Cc1ccc(C)c(N2N=C(C(=O)Nc3ccccc3N3CCCC3)CCC2=O)c1,11,0.71,6,1.4,-25,-20,-1.8,i,5.4
NS(=O)(=O)c1cccc(NC(=O)CSc2nc3ccc(Cl)cc3[nH]2)c1,0,0.73,97*,2.3,-37*,0.4*,3.6*,i,0.0
CCc1ccc2[nH]c(=O)c(CN(Cc3ccccc3)Cc3nnnn3Cc3ccco3)cc2c1,6,0.67,59,4.5,.,.,.,.,-1.2
Cc1cccc(-c2cccc(NC(=O)C3CCCN(C(=O)c4ocnc4C)C3)c2)c1 (stereo unspecified),-1,0.74,-18,-4.3,-33,-40,-1.6,i,3.5
CCOC(=O)c1c(C)[nH]c(C)c1C(=O)CN1C(=O)NC2(CCC(C)CC2)C1=O (stereo unspecified),-9,0.72,-2,-0.6,.,.,.,.,2.6
CC(=O)c1ccc(-c2ccc([C@H]3[C@H]4C=CC[C@@H](C)[C@@H]4C(=O)N3Cc3ccccc3)c(F)c2)cc1,-1,.,-6,-2.1,-1,4,-12,i,-3.0
O=c1cc(CN2CCCC2)c2c(ccc3ccccc32)o1,.,.,.,2.2,13,1,2.0,i,.
CCN(CC(=O)N1CCCCC1)S(=O)(=O)c1ccccc1,-1,0.74,15,-1.1,9,17,2.4,i,-1.0
Cc1nc(NCc2ccco2)c2cn[nH]c2n1,0,0.68,.,2.2,18,12,2.3,i,-0.4
COc1ccc2cc(S(=O)(=O)N3CCCC(C)C3)ccc2c1 (stereo unspecified),1,.,-1,1.7,-6,-46,-2.5,.,.
COc1ccc(OCC(O)CNS(=O)(=O)c2cccs2)cc1 (stereo unspecified),-3,0.69,-3,2.4,4,9,0.1,i,-0.2
COc1cc(OC)cc(C(=O)NC(=S)N(Cc2ccccc2)C(C)C)c1,7,0.69,-2,-8.4,9,3,-4.4,i,6.6
CC1CCCCN1c1nnc(NC(=O)c2cc(-c3ccc(Br)cc3)on2)s1 (stereo unspecified),7,0.71,.,0.8,1,-10,9.9,i,-4.0
O=C(CNCc1ccco1)Nc1cc(S(=O)(=O)N2CCOCC2)ccc1N1CCOCC1,-1,0.69,-26,3.9,11,12,8.0,i,0.1
COc1ccc(S(=O)(=O)N(CC(=O)N2CCCC2)Cc2ccccc2)cc1,-7,0.73,-2,-0.9,.,.,.,.,-3.9
CCOC(=O)C1CCN(C(=O)CN(c2cc(Cl)ccc2OC)S(=O)(=O)c2ccccc2)CC1,3,0.71,-18,-1.4,0,0,1.7,i,3.1
C=C(C)C(=O)N1CC2(CC(c3cccc(NC(=O)CC)c3)=NO2)C[C@H]1C(N)=O (stereo partly specified),3,.,-1,0.4,.,.,.,.,3.2
O=C(NCCc1c[nH]c2ccccc12)/C(=C/c1cccnc1)NC(=O)c1ccccc1,1,0.66,-3,3.8,-1,-3,3.0,.,-2.0
COC(=O)N/N=C\c1ccc(-c2cc(Cl)c(Cl)cc2Cl)o1,-5,.,-2,-3.0,.,.,.,.,.
CC(C)[C@H](NC(=O)OC(C)(C)C)c1cc(C(=O)NCCO)c(N)s1,.,.,.,-0.4,19,21,3.5,i,.
O=C(O)C1C2C=CC(C2)C1C(=O)Nc1ccc(Cl)c(Cl)c1 (stereo unspecified),-5,0.7,-3,0.3,-3,13,-4.1,i,2.3
CCOC(=O)CNC(=O)N1CCCC(C(=O)c2cc(C)c(OC)c(C)c2)C1 (stereo unspecified),7,0.68,.,0.1,7,-1,2.9,i,2.6

# These rows are one share of the data; count on the stated rates, not on these rows.
